Rango dissoc inh – qHTS Assay for Inhibitors of RanGTP induced Rango (Ran-regulated importin-beta cargo) - Importin beta complex dissociation. Snurportin-1 (Homo sapiens) + GTP-binding nuclear protein Ran (Homo sapiens) + Importin …. Biochemical FRET Rango-importin beta, RanGTP-induced dissociation. Potency, µM (highest dose often 46.1 µM), without a hit: top-dose activity change, negative = inhibition. 340,000 compounds, 0.071% hits; active means falling FRET ratio curve, often poorly fitted, with flat reads before Ran was added; inconclusive means other falling curves, or compound fluorescence or quenching; inactive means flat or rising ratio curve;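 further: potency means the concentration at half of the fitted maximal effect; % of control where 0% means no effect; nearly all actives have a fitted effect of over 45% in size; -100% = wells without RanGTP and RCC1; the record marks most hits as doubtful in a second field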
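Rango (0.1 uM)–importin beta (0.25 uM) complex; RanGTP-RCC1 trigger; 45 min RT; CFP/YFP FRET read.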
miR-21 reporter – qHTS Assay for Modulators of miRNAs and/orActivators of miR-21 | HeLa miR-21 FLuc reporter, luciferase, 48 h | 340,000 tested, under 10 active | Potency, µM (top dose mostly 38.3 µM), without a hit: at the highest dose reporter change, positive = more light | AID 2288, 2010; active = well fitted rising curve with a large enough effect; inconclusive = small, poorly fitted or top-dose-only effect; inactive = no such curve, though single readings can be large or run the other way;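 further: % of control where 0% means no effect; miR-21 action dims this reporter so a rising signal means less miR-21 action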
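HeLa cells stably expressing CMV-driven firefly luciferase with a downstream miR-21 binding sequence, endogenously expressing miR-21, were treated with titrations (up to about 40uM final) for 48 hours at 37 degree Celsius. Luciferase luminescence was read after lysis.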
Rango complex inh – qHTS Assay for Inhibitors of Rango (Ran-regulated importin-beta cargo) - Importin beta complex formation; Importin subunit beta-1 (Homo sapiens), Q14974; Rango CFP/YFP FRET sensor + importin beta, 45 min; Potency, µM (highest dose often 92.2 µM), for inactives: top-dose inhibition of complex formation; 340,000 compounds, 0.031% hits; active = rising FRET ratio curve, often small or poorly fitted; inconclusive = mostly compound fluorescence or quenching in the first reads; inactive = flat curves in all reads;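 further: potency means the concentration at half of the fitted maximal effect; 0% = DMSO wells and 100% = buffer wells lacking importin beta; nearly all actives have a fitted effect of over 15% in size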
Target sequence (Q14974 whole entry, looked up): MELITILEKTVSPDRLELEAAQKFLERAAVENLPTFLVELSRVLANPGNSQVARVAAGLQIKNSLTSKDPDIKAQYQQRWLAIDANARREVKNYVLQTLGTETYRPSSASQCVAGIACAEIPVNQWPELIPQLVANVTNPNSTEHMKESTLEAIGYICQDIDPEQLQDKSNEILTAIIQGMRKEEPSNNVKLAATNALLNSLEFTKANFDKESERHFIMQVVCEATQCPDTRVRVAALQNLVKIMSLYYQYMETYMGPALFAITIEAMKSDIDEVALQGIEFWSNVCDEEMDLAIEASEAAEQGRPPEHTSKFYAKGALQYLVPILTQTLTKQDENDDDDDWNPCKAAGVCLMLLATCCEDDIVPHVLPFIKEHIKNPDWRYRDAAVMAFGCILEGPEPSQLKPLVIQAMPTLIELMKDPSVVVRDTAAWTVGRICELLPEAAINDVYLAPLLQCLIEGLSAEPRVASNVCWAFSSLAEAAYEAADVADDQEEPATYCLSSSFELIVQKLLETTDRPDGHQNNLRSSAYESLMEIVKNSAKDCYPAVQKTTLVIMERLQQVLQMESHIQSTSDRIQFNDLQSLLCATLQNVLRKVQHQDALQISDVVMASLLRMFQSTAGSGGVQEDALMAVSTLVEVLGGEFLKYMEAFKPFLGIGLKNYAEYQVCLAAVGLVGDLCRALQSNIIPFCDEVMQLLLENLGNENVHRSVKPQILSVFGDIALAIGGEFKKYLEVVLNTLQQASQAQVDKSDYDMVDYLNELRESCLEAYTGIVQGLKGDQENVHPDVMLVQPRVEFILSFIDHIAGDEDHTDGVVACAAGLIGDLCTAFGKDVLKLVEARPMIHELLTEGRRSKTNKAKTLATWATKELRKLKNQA
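FRET biosensor Rango (snurportin 1 IBB between N-terminal EYFP and C-terminal Cerulean), 50 nM in PBS/1 mM DTT/0.02% Tween-20/0.1% BSA, preincubated 5 min RT with compound; 0.125 microM importin beta added, 45 min RT, CFP/YFP FRET ratio read.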
GLA inh pH 4.5 – qHTS Assay for Inhibitors of Human alpha-Galactosidase at pH 4.5; purified enzyme, 4-MU-alpha-Gal fluorescence, pH 4.5; activity change, negative = inhibition, % at 105 µM; 230,000 tested, under 10 active; inconclusive = small, poorly fitted or top-dose-only inhibition, or a rising curve; inactive = flat fitted curve, though single readings scatter; no compound was filed as active;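 further: 0% = full activity with enzyme and -100% = basal without enzyme; dose as in the result columns while the protocol names 77 µM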
Numbers without * were called inactive; ? = inconclusive; . = not tested or not shown; & = joins results of further samples. Not all compounds are listed; count on the stated rates, not on these rows.

Rango dissoc inh	miR-21 reporter	Rango complex inh	GLA inh pH 4.5	mol
-13%	-3%	-2.5%	3	O=C(c1cnccn1)N(c1ccccc1)C1(C(=O)NC2CCCCC2)CCCCC1
-3%	2%	-0.2%	-3	O=C1CC(c2cccc(Cl)c2)CC(O)=C1C=Nc1ccccc1 (stereo unspecified)
-13%	-3%	-3.7%	.	COc1ccc(CN2CCNC(=O)C2CC(=O)NC2CC(C)(C)CC(C)(C)C2)cc1OC (stereo unspecified)
6%	-1%	-2.2%	-1	Cc1ccc(C(=C2C3C=CC2C2C(=O)NC(=O)C32)c2ccc(C)cc2)cc1 (stereo unspecified)
-6%	6%	-1.1%	2	Cn1cc(S(=O)(=O)NCc2ccc(Cl)cc2)c(=O)n(C)c1=O
25%	-2%	-5.6%	-4	CCOC(=O)c1ccc(NC(=O)c2nc[nH]c2C(=O)N2CCc3ccccc3C2)cc1
3%	-3%	1.4%	-10	COc1ccc(N=Nc2ccc(O)c(P(=O)(c3ccccc3)c3ccccc3)c2)cc1
1%	-1%	1.8%	-4	CCn1c(SCC(=O)NNC(=O)c2ccccc2)nnc1-c1ccco1
.	2%	.	-4	CCCCNC(=O)Oc1c(Br)cc2sc(=O)oc2c1Br
4%	2%	0.1%	-5	CSc1nccc(-c2c(-c3ccc(Cl)cc3)noc2C)n1
-7%	-2%	-1.0%	.	Cc1ccc(C2CC(c3ccc(Br)cc3)=NN2C(=O)CSC2=NN3CCCC(=O)N=C3S2)cc1 (stereo unspecified)
-6%	-56%	-0.6%	.	O=C(CSc1nnc(-c2ccccn2)o1)Nc1ccccc1C(F)(F)F
-6%	-5%	0.6%	.	COc1cccc(N2CCN(C(=O)c3ccc(-c4ccccc4)cc3)CC2)c1
1%	-25%	-1.3%	11	O=C(Nc1ccc(Cl)cc1)c1ccc(OC2CSC2)cc1
8%	?	?	-6	CN(C)c1ccc(NC(=S)c2ccccn2)cc1
?	-10%	?	.	CN(C)c1ccc(/C=C/c2nc3ccccc3c(=O)n2-c2ccc(C(=O)O)cc2)cc1
-4%	1%	2.1%	.	O=C(CCNC(=O)c1ccco1)Nc1ccc(OC(F)(F)F)cc1
0%	14%	-2.6%	.	Cc1ccc(NC2CCCCC2NS(=O)(=O)c2ccccc2)c(C)c1 (stereo unspecified)
4%	-22%	1.2%	-7	COc1ccc(/C=N/NC(=S)N[C@H]2CC3CCC2C3)cc1 (stereo partly specified)
-2%	-2%	?	-2	Cc1nc(C)c(Oc2cccc(C(F)(F)F)c2)c(=O)[nH]1
-19%	-25%	-3.8%	-26	CC(/C=C/c1ccco1)=N\NC(=O)c1cc(Cl)ccc1O
10%	-41%	4.7%	.	COc1ccccc1N1CCN(/N=C/c2ccc(Cl)c([N+](=O)[O-])c2)CC1
-8%	-2%	?	-4	N#CC1=C(N)NC(=S)C(C(N)=O)C1c1ccccc1F (stereo unspecified)
5%	.	2.9%	.	S=c1nc[nH]c2c1ncn2-c1ccccc1
-6%	10%	-3.2%	0	Cc1oc(S(=O)(=O)N2CCCCC2)cc1NC(=O)Nc1ccc(F)cc1
-3%	-2%	-0.8%	3	CCOC(=O)C1=C(CBr)NC(=O)NC1C (stereo unspecified)
-14%	6%	0.6%	2	Cc1ccc(/C=c2\sc3n(c2=O)CN(c2cccc(Br)c2)CN=3)o1
9%	1%	1.5%	.	Cc1cc(C)c(C)c(S(=O)(=O)NCC(=O)NCC2CCCCC2)c1C
3%	-3%	-2.7%	1	O=C(COc1ccccc1)NCC(=O)NC1CCCCC1
-5%	.	0.7%	.	O=C(c1ccccc1NS(=O)(=O)c1ccc(F)cc1F)N1CCCCC1
11%	-1%	0.2%	.	Cc1[nH]c(=O)[nH]c(=O)c1Sc1ccccc1[N+](=O)[O-]
-1%	.	1.3%	.	O=S(=O)(NCC1(N2CCOCC2)CCCCC1)c1ccccc1Cl
-26%	5%	0.1%	2	CCOC(=O)C(=CNc1cc(C)nn1-c1ccc(Cl)cc1)C(=O)OCC
-2%	-2%	1.8%	8	CCOC(=O)c1cc(-c2cccnc2)nn1-c1ccccc1C
3%	-1%	-3.9%	-2	O=c1[nH]c2ccc(Br)cc2c(-c2ccccc2)c1CN1CCOCC1
12%	-3%	-0.6%	-1	O=C(NCCc1ccccc1)C1CCN(S(=O)(=O)c2cccc3nonc23)CC1
14%	.	0.6%	.	COc1ccc(CCNC(=O)COC(=O)c2ccc(F)c(S(=O)(=O)N3CCOCC3)c2)cc1
0%	.	-3.8%	.	O=C(CSc1ccccc1)NCC1(N2CCOCC2)CCCCC1
24%	-1%	0.2%	3	CCCc1c(O)nc(SCC(=O)NCc2ccco2)[nH]c1=O
-9%	-2%	7.9%	5	Cc1cccn2c(=O)c(/C=C3\SC(=S)N(CC(C)C)C3=O)c(NCCCOC(C)C)nc12
2%	0%	-2.7%	-7	Cc1nn(-c2ccccc2)c(C)c1/C=N/NC(=O)c1cc(-c2cccc3ccccc23)n[nH]1
-5%	0%	-1.1%	1	O=C(CSc1ncn[nH]1)N1CCCCC1
-6%	-4%	3.2%	-1	COCCOC(=O)C1=C(C)NC(=O)NC1c1c(Cl)nc2ccccn2c1=O (stereo unspecified)
-10%	.	0.0%	.	CCCCOC(=O)c1cc(-c2ccc(/C=N/n3cnnc3)o2)ccc1Cl
-14%	-2%	-3.2%	0	CC(C)c1ccc(/C=C/C(=O)N2CCc3ccccc3C2)cc1
.	-5%	.	-1	COc1cc(NS(=O)(=O)c2ccc(F)cc2)c(OC)cc1NC(=O)C1CC1
-10%	-5%	3.1%	-9	O=C(N/N=C/c1ccccn1)c1cccc(S(=O)(=O)Nc2ccccc2Cl)c1
-12%	-23%	-0.8%	.	COCCN1CCN(C(=O)c2cc(COc3ccc(F)c(F)c3)on2)CC1
-19%	8%	-1.3%	0	CCc1n(CC(O)COCC2CC=CCC2)c2ccccc2[n+]1C (stereo unspecified)
0%	-2%	1.3%	4	COc1ccc(N/C(=N/c2nc(C)cc(C)n2)NC(=O)c2ccccc2)cc1
-11%	3%	0.4%	.	O=C(O)c1cc(S(=O)(=O)N2CCN(S(=O)(=O)c3ccccc3)CC2)ccc1Cl
8.2µM*	.	?	.	Cc1cc(=O)oc2cc(O)cc(OCc3ccccc3)c12
7%	15%	-2.7%	.	CC(C)COc1cccc(-c2cc(C(=O)Nc3ccon3)c3ccccc3n2)c1
9%	-12%	0.0%	-6	COc1ccc2nc(SCC(=O)NC(C)C)[nH]c2c1
-15%	.	-0.7%	.	CNS(=O)(=O)c1cccc(C(=O)OCC(=O)N2c3ccccc3NC(=O)C2(C)C)c1
12%	5%	1.9%	1	CCOCCCNC1=C(Cl)C(=O)c2ccccc2C1=O

(cont.)
Rango dissoc inh	miR-21 reporter	Rango complex inh	GLA inh pH 4.5	mol
1%	0%	2.6%	.	COc1ccc(NC2CCCN(C(=O)c3ccc(C(C)=O)cc3)C2)cc1 (stereo unspecified)
13%	6%&-1%	17%	-17	CCCCN(C)CCCNC(=O)c1cn(CC)c2ccc(S(=O)(=O)N3CCc4ccccc4C3)cc2c1=O
?	5%	?	1	N=C(N)CCCOc1ccccc1-c1ccccc1
8%	7%	1.1%	-5	CCOc1ccc(S(=O)(=O)N(CC(=O)N/N=C/c2cccs2)c2ccc(C)cc2)cc1
4%	11%	-1.0%	.	CC(C)CCCN1C(Nc2ccccc2)=NC[C@@H]1Cc1ccccc1
?	-5%	?	3	CC(=O)C1=C(C)NC(SCC(=O)Nc2nccs2)=C(C#N)C1c1ccccc1Cl (stereo unspecified)
-11%	-7%	-2.4%	7	CCOC(=O)Cn1nnnc1C
-2%	15%	-1.8%	-7	Cc1[nH]c2ccccc2c1C(=O)COC(=O)c1c(-c2ccccc2)noc1C

Printed as active in Rango dissoc inh, of those listed so far:
Rango dissoc inh	miR-21 reporter	Rango complex inh	GLA inh pH 4.5	mol
8.2µM*	.	?	.	Cc1cc(=O)oc2cc(O)cc(OCc3ccccc3)c12

Twelve structures already listed, sorted by molecular weight, largest number first.
Rango dissoc inh	miR-21 reporter	Rango complex inh	GLA inh pH 4.5	mol
13%	6%&-1%	17%	-17	CCCCN(C)CCCNC(=O)c1cn(CC)c2ccc(S(=O)(=O)N3CCc4ccccc4C3)cc2c1=O
8%	7%	1.1%	-5	CCOc1ccc(S(=O)(=O)N(CC(=O)N/N=C/c2cccs2)c2ccc(C)cc2)cc1
-11%	3%	0.4%	.	O=C(O)c1cc(S(=O)(=O)N2CCN(S(=O)(=O)c3ccccc3)CC2)ccc1Cl
-15%	.	-0.7%	.	CNS(=O)(=O)c1cccc(C(=O)OCC(=O)N2c3ccccc3NC(=O)C2(C)C)c1
7%	15%	-2.7%	.	CC(C)COc1cccc(-c2cc(C(=O)Nc3ccon3)c3ccccc3n2)c1
0%	-2%	1.3%	4	COc1ccc(N/C(=N/c2nc(C)cc(C)n2)NC(=O)c2ccccc2)cc1
-2%	15%	-1.8%	-7	Cc1[nH]c2ccccc2c1C(=O)COC(=O)c1c(-c2ccccc2)noc1C
1%	0%	2.6%	.	COc1ccc(NC2CCCN(C(=O)c3ccc(C(C)=O)cc3)C2)cc1 (stereo unspecified)
12%	5%	1.9%	1	CCOCCCNC1=C(Cl)C(=O)c2ccccc2C1=O
8.2µM*	.	?	.	Cc1cc(=O)oc2cc(O)cc(OCc3ccccc3)c12
?	5%	?	1	N=C(N)CCCOc1ccccc1-c1ccccc1
-11%	-7%	-2.4%	7	CCOC(=O)Cn1nnnc1C

(cont.)
Rango dissoc inh	miR-21 reporter	Rango complex inh	GLA inh pH 4.5	mol
12%	-24%	2.5%	-11	Oc1[nH]c2ccccc2c1N=Nc1ccc(C(F)(F)F)cn1
0%	.	-3.5%	.	COc1ccccc1/C=C/C(=O)OCC(=O)NC1CC1
24%	-1%	-4.9%	.	CCOc1cccc(CN2CCCC(N3CCc4cc(OC)c(OC)cc4C3)C2)c1O (stereo unspecified)
1%	-2%	1.3%	-1	CN1CCN(C(c2cccs2)c2nnnn2Cc2ccc(F)cc2)CC1 (stereo unspecified)
-21%	-9%	?	-8	C=CCNC(=O)NC(=O)COC(=O)/C(C#N)=C/c1cc(C)n(CC(C)C)c1C
-8%	-26%	4.2%	3	COCCCn1c(=S)[nH]c2c(sc3ccccc32)c1=O
-5%	.	0.1%	.	Cc1ccc(C(NC(=O)CN2C(=O)NC3(CCCC3)C2=O)c2ccccc2)cc1 (stereo unspecified)
-8%	-28%	-1.7%	-8	Cc1ccc(Nc2nc(-c3ccc(O)cc3O)cs2)nc1
15%	3%	-0.2%	-3	COC(=O)c1cc(S(=O)(=O)n2nc(C)cc2C)c(Cl)cc1Cl
0%	.	-0.7%	.	CN(Cc1cccs1)C(=O)c1ccc(Cl)c(S(=O)(=O)N2CCCCCC2)c1
-7%	0%	-3.7%	1	O=P(O)(CP(=O)(c1ccccc1)c1ccccc1)c1ccccc1
5%	-13%	2.0%	0	Cc1c(C(=O)c2ccc(Cl)cc2[N+](=O)[O-])c2ccccn2c1CCC#N
5%	-10%	-4.4%	2	COc1ccc(S(=O)(=O)N(CCc2ccccc2)CC(=O)N2CCOCC2)cc1
-3%	-5%	2.2%	.	O=C(CN1CCN(S(=O)(=O)c2ccc(F)cc2)CC1)N1CCOCC1
23%	0%	-0.8%	.	CCc1nn(CC(=O)N2CCN(c3ccc(OC)cc3)CC2)c(=O)c2cc3occc3n12
1%	-55%&-31%	-3.8%	-8	CCC(=O)Nc1cc2nn(-c3ccc(C)cc3)nc2cc1C
6%	1%	1.6%	-9	COc1ccc(F)cc1CN1CCN(c2ncnc3scc(-c4ccccc4)c23)CC1
-15%	.	-0.4%	.	CC[C@]12c3[nH]c4ccc(OC)cc4c3CCN1C(=O)C(CC(=O)NCCCn1ccnc1)C[C@@H]2C(=O)N1CCN(C(=O)C2CC2)CC1 (stereo partly specified)
8%	-1%	-2.0%	.	COc1cc(/C=N/Nc2nc(C)cc(C)n2)cc(OC)c1OC
12%	0%	-0.3%	4	CC(NC(=O)Cc1ccccc1)c1nc2ccccc2[nH]1 (stereo unspecified)
